Assay outcomes from PubChem BioAssay.
KCNQ2 enhance: KCNQ2 (rat) channel potentiation | O88943 | CHO-K1 KCNQ2, FluxOR thallium flux fluorescence; hits give high values | B-score at 10 µM | 310,000 compounds, 0.54% hits;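 active = fluorescence ratio B-score at least 3 SD of library B-scores, with initial fluorescence B-score within 3 SD, cut at about 5.3 in these data; same plate scores as AID 2156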;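 note: B-score of peak minus minimum over baseline fluorescence ratio after K+ and Tl+ stimulus; positive B-score means potentiation of KCNQ2 with more thallium influx and brighter signal; only the inactives scoring about 0 or higher are listed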
Target sequence (O88943 whole entry, looked up): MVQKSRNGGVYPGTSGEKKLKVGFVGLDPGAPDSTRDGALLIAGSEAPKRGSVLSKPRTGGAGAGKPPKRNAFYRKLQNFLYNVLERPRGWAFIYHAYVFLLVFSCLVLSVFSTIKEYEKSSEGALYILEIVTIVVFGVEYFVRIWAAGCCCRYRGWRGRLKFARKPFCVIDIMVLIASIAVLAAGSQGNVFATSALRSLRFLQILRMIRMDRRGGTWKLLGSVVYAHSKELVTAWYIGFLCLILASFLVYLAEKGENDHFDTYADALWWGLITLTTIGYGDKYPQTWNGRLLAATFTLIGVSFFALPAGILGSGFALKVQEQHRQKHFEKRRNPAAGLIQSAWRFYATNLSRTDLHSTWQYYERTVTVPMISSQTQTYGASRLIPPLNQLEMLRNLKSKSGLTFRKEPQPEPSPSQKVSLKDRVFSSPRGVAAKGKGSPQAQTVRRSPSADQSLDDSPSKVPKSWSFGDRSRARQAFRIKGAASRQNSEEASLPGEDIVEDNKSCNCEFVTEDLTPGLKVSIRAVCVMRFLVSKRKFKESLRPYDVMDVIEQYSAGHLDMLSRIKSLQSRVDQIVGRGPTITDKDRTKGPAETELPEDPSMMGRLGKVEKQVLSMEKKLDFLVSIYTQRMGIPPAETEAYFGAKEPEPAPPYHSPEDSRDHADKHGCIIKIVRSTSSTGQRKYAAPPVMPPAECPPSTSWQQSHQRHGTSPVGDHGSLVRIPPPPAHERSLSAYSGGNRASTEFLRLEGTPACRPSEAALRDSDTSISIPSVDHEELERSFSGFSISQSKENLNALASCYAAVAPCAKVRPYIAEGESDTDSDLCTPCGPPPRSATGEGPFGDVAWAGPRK
KCNQ2 enhance baseline: further read-out of KCNQ2 enhance, marked with its call; B-score; compound at 10 µM; measured here: initial fluorescence intensity artifact check;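 brightness before thallium and not channel activity; 0 = typical well and far values either way flag optical interference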
* = called active by the depositor.

SMILES | KCNQ2 enhance | KCNQ2 enhance baseline
CC1=NN(C(N)=S)C(=O)C1N=Nc1ccc(C)c(Br)c1 (stereo not given) | 1.1 | 0.41
O=C(Nc1ccc(F)cc1)Nc1ccc([N+](=O)[O-])cn1 | 1.7 | 0
Cc1[nH]n(C(N)=S)c(=O)c1N=Nc1cccc([N+](=O)[O-])c1C | 0.18 | 2.8
Cc1nc(C(=O)Nc2cc(F)cc(Cl)c2)sc1C1(C)CC(c2ccccc2)=NO1 (stereo not given) | 0.01 | -0.06
O=C(NCCCN1CCOCC1)c1cccnc1SCc1ccccc1Cl | 0.06 | -0.14
CC(C)CCNC(=O)C1CCN(S(=O)(=O)c2ccc3c(c2)CCC(=O)N3)CC1 | 0.46 | 0.11
CC(Sc1ccc(Cl)cc1)C(=O)N(C)CC(=O)Nc1ccc(N2CCOCC2)cc1 (stereo not given) | 2.1 | 1.3
COc1ccc(CN(CC(=O)NCc2ccco2)C(=O)CCC(=O)Nc2ccccn2)cc1 | 0.28 | 1.1
O=C1CN2C(=Nc3ccc(Br)cc3C2c2ccccc2)CCN1 (stereo not given) | 0.6 | -1
CC(C)COc1nc2c(c(=O)n(C)c(=O)n2C)n1C | 0.3 | -0.12
Cc1ccc2cc3cc(C(=O)NC4CCCCC4)oc3nc2c1 | 0.17 | 0.03
Fc1ccc(NC(=S)NCCc2ccccc2)c(F)c1F | 1.2 | -0.52
CCN1C(=O)NC(c2cc(Br)ccc2OC)C(C(=O)OC)=C1C (stereo not given) | 0.29 | -1.3
O=C(CSc1n[nH]c(=O)n1-c1cccnc1)Nc1ccccc1Cl | 0.39 | 1.4
Cn1c(SCC(=O)N2CCCC2)nnc1-c1ccc2c(c1)OCO2 | 0.41 | -0.82
Cc1ccc(S(=O)(=O)N(C)C)cc1NC(=O)/C=C/c1cccs1 | 0.76 | -0.6
CC1(C(=O)N/N=C/c2ccccc2)CC1(Cl)Cl (stereo not given) | 1.8 | -1.5
COc1cc2c(cc1NC(=O)Nc1ccccc1)oc1ccccc12 | 0.53 | 0.57
CCN1C(=O)c2ccc(C(=O)NCc3ccco3)cc2C1=O | 0.79 | -0.05
COc1ccc(OCCC(=O)NC2CCCCC2)cc1 | 1 | 0.03
COc1ccc(NC(=O)CN(C)C(=O)C(C)Oc2ccc(Br)cc2)cc1 (stereo not given) | 0.07 | 0.01
CCOc1ccc(S(=O)(=O)N2CCCC2)cc1 | 0.52 | 0
NC1=NC(=Nc2cccc(S(N)(=O)=O)c2)c2ccccc21 | 0.26 | 0.05
CC(O)c1nc2ccccc2n1Cc1ccc([N+](=O)[O-])cc1 (stereo not given) | 0.22 | -2
COc1ccc(CCNC(=O)CN2C(=O)COc3ccc(S(=O)(=O)N4CCCC4)cc32)c(OC)c1 | 0.46 | 1.3

Continuation:
SMILES | KCNQ2 enhance | KCNQ2 enhance baseline
Cc1ccc(Nc2c(-c3ccccn3)nc3ccc(C)cn23)cc1 | 0.47 | -0.41
COc1cc(Br)cc(CN2CCN(c3ncccn3)CC2)c1O | 0.7 | 0.09
COc1ccc2c(CC#N)c[nH]c2c1 | 0.17 | 0.01
Fc1ccccc1NC(=S)N1CCC(c2ccccc2)C1 (stereo not given) | 0.05 | 0.39
COc1ccc(CC(=O)N/N=C(\C)c2cccc(NC(=O)C3CC3)c2)cc1 | 2.9 | 0.1
Nc1nc2nc(-c3ccc(F)cc3)cc(C(F)(F)F)n2n1 | 1.1 | 0.81
COc1ccc(-n2c(SCC(=O)NNC(=O)c3ccccc3C)nnc2-c2ccncc2)cc1 | 0.6 | 0.03
CCCC(C)c1nnc(NC(=O)COc2ccc3c(c2)OCO3)s1 (stereo not given) | 0.99 | -0.71
Cc1cc(Nc2ccc(C)c(Br)c2)n2nc(C)nc2n1 | 0.09 | 1.6
COc1ccc(-c2cc(CCCC(=O)N3CCN(c4ccc(OC)cc4)CC3)no2)cc1 | 0.4 | -0.01
COc1cccc(CNC(=O)CCC2CCCN(C(=O)c3cc(C4CC4)[nH]n3)C2)c1 (stereo not given) | 0.52 | -0.26
COc1ccc(-n2c(-c3ccccc3)nc(=S)c3c2CCCC3)cc1 | 0.89 | -1.1
C[C@H](CS)C(=O)N1CCC[C@H]1C(=O)O | 0.04 | 0.43
COc1cccc(CNCC(=O)Nc2ccc(N3CCOCC3)cc2)c1 | 0.93 | 0.07
CCCCNC(=O)CCC(=O)NNc1nc2ccccc2c2nc(C)nn12 | 2.3 | -0.83
CSc1nnc(-c2ccc(Cl)cc2Cl)o1 | 0.83 | -0.86
CCOc1cc(/C=N/NC(=O)c2ccncc2)ccc1OS(C)(=O)=O | 1.7 | -0.58
COCCOC(=O)C1=C(C)NC(=O)NC1c1c(F)cccc1Cl (stereo not given) | 0.05 | -1.3
COCCSc1nnc(NC(=O)c2ccc(OC)c([N+](=O)[O-])c2)s1 | 0.71 | -0.5
CCC(OC(=O)c1cccs1)C(=O)NCc1ccco1 (stereo not given) | 0.1 | 0.82
O=C(CCC(=O)NCCO)NCCO | 0.69 | 1.6
Cc1nnc2sc(-c3cccc4ccccc34)nn12 | 0.75 | -0.09
CCOc1cc(S(=O)(=O)NCCCN2CCOCC2)ccc1F | 0.05 | 0.83
NC1=NC(c2ccccc2Cl)n2c(nc3ccccc32)N1 (stereo not given) | 0.01 | -1.1
Cc1ccc(/C=N/NC(=O)c2cccc(S(=O)(=O)Nc3cccc(Cl)c3)c2)o1 | 0.35 | 1.4

Other compounds
SMILES | KCNQ2 enhance | KCNQ2 enhance baseline
OCCn1nc2c3ccccc3nc-2n(-c2ccccc2)c1=S | 1.9 | -1.3
NC(=O)C1CCN(S(=O)(=O)c2cc3c4c(c2)CCN4C(=O)CC3)CC1 | 0.64 | -1.8
O=[N+]([O-])c1cccc(S(=O)(=O)NCCCn2ccnc2)c1 | 0.03 | 1.2
O=C(COC(=O)CC1CCCC1)Nc1ccc(OC(F)F)cc1 | 2 | 0.25
CN(C)C(=O)COc1ccc(S(=O)(=O)c2ccc(OCC(=O)N(C)C)cc2)cc1 | 0.2 | -0.01
O=C(Nc1cccc(-c2nn[nH]n2)c1)c1ccc(Br)s1 | 0.41 | 0.31
CS(=O)(=O)NCc1nnc(SCC(=O)NC2CCCCC2)n1-c1ccc(F)cc1 | 0.39 | -1.3
CS(=O)(=O)c1ccc(-c2csc(-c3cccnc3)n2)cc1 | 1.4 | 0.03
Cc1cc(S(N)(=O)=O)c(N)c(S(N)(=O)=O)c1 | 0.36 | -1.4
O=C(COC(=O)c1ncc(Cl)c(Cl)c1Cl)Nc1ccc(Cl)cn1 | 1.4 | 0.41
C[C@]12C=CC(=O)C=C1CC[C@@H]1[C@@H]2[C@@H](O)C[C@@]2(C)[C@H]1CC[C@]2(O)C(=O)COC(=O)CCC(=O)NCCc1ccc(O)cc1 | 0.02 | 0.9
N#CCCn1cc(/C=N/O)c(-c2cccc([N+](=O)[O-])c2)n1 | 0.48 | 0.48
Cc1ccc(NC(=O)c2ccco2)c(NC(=O)CN2C(=O)c3ccccc3C2=O)c1 | 1.8 | 3.4
O=C(CNC(=O)c1nc[nH]c1C(=O)N1CCNCC1)OCc1ccccc1 | 0.18 | 0
O=C(c1cccc(F)c1)N1CCC(c2nc3ccccc3s2)CC1 | 0.82 | -0.63
O=C(OCc1c(F)cccc1Cl)c1cccnc1Cl | 0.62 | -0.48
CCc1nnc2n1N=C(c1ccc(Br)cc1)CS2 | 0.15 | -2.8
COc1cc2nc(-c3cccs3)oc(=O)c2cc1OC | 0.01 | 0.8
O=C(Nc1nc(-c2ccccc2)c(-c2ccccc2)o1)c1ccc(F)cc1 | 4.2 | 0.49
CCCCCCCc1c(C)nc(N2CCOCC2)[nH]c1=O | 1.9 | -1.1
Oc1c(Br)cc(/C=N/NC(=S)NCc2ccco2)cc1Br | 0.95 | -2.2
CC(=O)Nc1ccc(-c2cc(-c3ccc(NC(C)=O)cc3)nc(-c3ccccc3)n2)cc1 | 0.01 | 0.87
C#CCOCCOCCOCCNc1nc(N2CCN(C(=O)C([C@@H](C)CC)n3cc(C(N)COC(=O)C(F)(F)F)nn3)CC2)nc(N2CCN(C(=O)[C@H](CCC(=O)O)n3cc(C(N)CC(C)C)nn3)CC2)n1 (stereo not given in full) | 0.73 | -0.01
Cc1cc(C)nc(N2CCN(C(=O)CCC(=O)Nc3nnc(C(C)C)s3)CC2)n1 | 0.46 | -1.1
O=C(OC1CCOC1=O)c1cc(-c2cccc(Br)c2)nc2ccccc12 (stereo not given) | 1.9 | -1.3

Remaining list, next part
SMILES | KCNQ2 enhance | KCNQ2 enhance baseline
CC(=O)c1ccc(N2CCN(C(=O)Cc3n[nH]c(=O)c4ccccc34)CC2)cc1 | 0.21 | 0.03
CS(=O)(=O)N1CCN(c2ccccc2NC(=S)NC(=O)c2ccccc2[N+](=O)[O-])CC1 | 0.61 | -3.1
CC(=O)Nc1c2c(nn1-c1ccc(Cl)cc1)CSC2 | 2.1 | -0.07
O=C(NC(=S)Nc1ccccc1O)c1cncc(Br)c1 | 0.03 | 2.6
CC1CC(C)CN(CCCNC(=O)C2CCN(c3nnc(-n4cccc4)s3)CC2)C1 (stereo not given) | 2.2 | -0.06
CC1=C(C#N)C(c2ccc(O)cc2)C2=C(CC(C)(C)CC2=O)N1 (stereo not given) | 2 | 0.43
O=C(NCCS(=O)(=O)N1CCCCC1)c1ccc2c(c1)OCO2 | 0.25 | 1.8
Cc1ccc(CCNC(=O)C(C)n2nc(C)c3c(C)n(-c4ccccc4)nc3c2=O)cc1 (stereo not given) | 0.84 | 0.28
O=c1[nH]c(-c2ccco2)nc2sc3c(c12)CCCC3 | 0.41 | -0.03
CCC(=O)Nc1cccc(-c2nnc(SCC(=O)NCc3ccco3)n2C)c1 | 0.95 | -3
O=C(C1CC1)N(CCc1ccccc1)Cc1nc2ccccc2c(=O)[nH]1 | 0.51 | -3.3
COc1ccccc1NC(=O)C(C)OC(=O)c1cccc(-n2cnnn2)c1 (stereo not given) | 0.67 | 1
COc1ccc(Oc2cn[nH]c2-c2ccc(OCC(=O)NN)cc2O)cc1 | 0.3 | -0.82
CCOc1cccc(/C=N/Nc2nc(N3CCCC3)nc(N3CCCC3)n2)c1O | 1.3 | -0.39
CC(C)[C@H](NC(=O)N1c2ccccc2NC(=O)[C@@H]1C(C)C)C(=O)N[C@H](Cc1ccccc1)C(=O)O | 0.59 | -0.01
CN(c1ccc(OCC(=O)N2CCOCC2)cc1)S(=O)(=O)c1ccc(F)cc1 | 0.32 | 1.8
Cc1ccc(C)c(NC(=O)CSc2nnc(-c3ccccc3C)o2)c1 | 0.32 | 0.98
CCS(=O)(=O)c1nc(S(=O)(=O)c2ccc(Cl)cc2)c(NCCCN2CCCC2=O)s1 | 0.02 | -0.03
Cc1cc(=O)oc2cc(OCc3ccc(C(=O)N4CCN(c5ccccc5)CC4)cc3)ccc12 | 0.49 | 0.93
O=S(=O)(Nc1nc2ccccc2nc1Cl)c1ccc(Br)cc1 | 0.31 | -0.52
Cc1cccc(NC(=O)CSc2nnc(CSc3nc(C)cc(C)n3)o2)c1 | 0.6 | 0.51
O=C(Cc1ccc(F)cc1)NC1CCCCCC1 | 0.13 | 0.85
CCn1nc(C)c(/C=N/NC(=O)Cn2cncn2)c1C | 0.37 | 1.9
Cc1ccc(-c2nnc(-c3ccccc3)o2)cc1Br | 1.3 | 0.75
CCC(NC(=O)c1ccccc1NC(=O)c1ccccc1)C(=O)NNC(=O)CSc1nc2ccccc2o1 (stereo not given) | 1.6 | 1.3

Compound profiles, from the list above.
Listed for `CCc1nnc2n1N=C(c1ccc(Br)cc1)CS2` → KCNQ2 enhance = 0.15; KCNQ2 enhance baseline = -2.8
Listed for `COc1ccc2c(CC#N)c[nH]c2c1` → KCNQ2 enhance = 0.17; KCNQ2 enhance baseline = 0.01
Listed for `CC(C)CCNC(=O)C1CCN(S(=O)(=O)c2ccc3c(c2)CCC(=O)N3)CC1` → KCNQ2 enhance = 0.46; KCNQ2 enhance baseline = 0.11

(listing goes on)
SMILES | KCNQ2 enhance | KCNQ2 enhance baseline
O=C(N/N=C1\CCCc2oc(C(=O)O)cc21)c1ccccc1 | 0.08 | -0.71
Cc1nn(Cc2cccc(C(=O)O)c2)c(C)c1[N+](=O)[O-] | 0.77 | 1.5
Cc1ccnc(NC(=O)Cn2c(=O)oc3ccccc32)c1 | 0.2 | 0.64
COC(=O)C1=C(C)Nc2nc(-c3ccccc3)nn2C1c1ccc(C)o1 (stereo not given) | 1.3 | -2.1
COc1ccc(NS(=O)(=O)c2cccc(C(=O)NNC(=O)NCCCl)c2)cc1 | 1.1 | -0.67
Cc1ccc2nc(N3C(=O)CNC3=S)sc2c1 | 0.2 | 0.22
COc1ccc(C(=O)NCc2nnc(SCC(=O)N3CCc4ccccc43)n2C2CCCCC2)cc1 | 1.9 | 1.9
Cc1ccc(C)c2[nH]c(=O)c(CCNC(=O)c3ccc4c(c3)OCO4)cc12 | 0.12 | -0.03
Cc1ccc(Cl)cc1N1CCN(C(=O)c2noc(C)c2[N+](=O)[O-])CC1 | 0.14 | 0.95
Cc1csc(NC(=O)CNS(=O)(=O)c2cccs2)n1 | 0.98 | 1.6
CCC(=O)N1CCc2cc(Br)cc(S(=O)(=O)CCC(=O)NCc3ccco3)c21 | 0.33 | -1.3
N#C/C(=C/Nc1ccccc1F)S(=O)(=O)c1ccc(Cl)cc1 | 0.18 | -2.6

Grouped by structure, the entries above with a thiophene ring, fused or not.
SMILES | KCNQ2 enhance | KCNQ2 enhance baseline
Cc1ccc(S(=O)(=O)N(C)C)cc1NC(=O)/C=C/c1cccs1 | 0.76 | -0.6
CCC(OC(=O)c1cccs1)C(=O)NCc1ccco1 (stereo not given) | 0.1 | 0.82
O=C(Nc1cccc(-c2nn[nH]n2)c1)c1ccc(Br)s1 | 0.41 | 0.31
COc1cc2nc(-c3cccs3)oc(=O)c2cc1OC | 0.01 | 0.8
O=c1[nH]c(-c2ccco2)nc2sc3c(c12)CCCC3 | 0.41 | -0.03
Cc1csc(NC(=O)CNS(=O)(=O)c2cccs2)n1 | 0.98 | 1.6

Some of the compounds tested (hit frequency here may not be typical).
